NOMO-1 viab = STK33 inhibitor candidate reducing NOMO-1 cell viability | AID 2330 | inhibition, % (no concentration beside the values) | NOMO-1 AML viability, CellTiter-Glo luminescence, 72 h | 7.5% of 37,000 active;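 active = most replicates above 80%; inconclusive = exactly half above 80%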;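 note: wells of about 30 µL received 25 nL stock; 0% = median of vehicle wells and 100% = reference inhibitor level; the first replicate is given; inactives centre near 10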
The depositor's hits bear a star; ? = inconclusive. Some of the compounds tested (hit frequency here may not be typical).

SMILES | NOMO-1 viab
C[C@@H]1CN([C@H](C)CO)C(=O)c2cccc(NC(=O)C3CCOCC3)c2O[C@@H]1CN(C)C | 13
C[C@@H]1CN([C@H](C)CO)C(=O)c2cccc(NC(=O)C3CCCCC3)c2O[C@H]1CN(C)Cc1ccccc1 | ?
C[C@@H]1CCCCO[C@@H](CN(C)C(=O)Nc2ccccc2)[C@@H](C)CN([C@H](C)CO)C(=O)c2cc(NS(=O)(=O)c3cn(C)cn3)ccc2O1 | -3
CNC[C@H]1Oc2ccc(NS(=O)(=O)c3ccccc3)cc2CC(=O)N([C@@H](C)CO)C[C@@H]1C | 2
C[C@H]1CN([C@@H](C)CO)C(=O)Cc2cc(N(C)C)ccc2O[C@@H]1CN(C)C | -2
COc1ccccc1NC(=O)CSc1n[nH]c(C)n1 | 5
C[C@H](CO)N1C[C@H](C)[C@H](CN(C)Cc2ccc(C(F)(F)F)cc2)Oc2ccc(NC(=O)Nc3cccc4ccccc34)cc2C1=O | 42
COc1cccc(C2CC(C(F)(F)F)n3ncc(C(=O)NCc4ccco4)c3N2)c1 (centres undefined) | -14
COc1ccc(Cl)cc1NC(=O)CN(c1cccc(F)c1)S(C)(=O)=O | 30
C[C@H](CO)N1C[C@H](C)[C@H](CN(C)S(=O)(=O)c2cccs2)Oc2ccc(NS(=O)(=O)c3ccc(F)cc3)cc2CC1=O | -13
COc1ccc(NC(=O)Nc2ccc3c(c2)C(=O)N([C@@H](C)CO)C[C@@H](C)[C@@H](CN(C)Cc2ccc(C(=O)Nc4ccccc4N)cc2)O3)cc1 | ?
C[C@@H]1CN([C@@H](C)CO)C(=O)c2cccc(NC(=O)CCCCCC(=O)Nc3ccccc3N)c2O[C@@H]1CN(C)S(=O)(=O)c1ccc(F)cc1 | 92*
COc1ccc(S(=O)(=O)N(C)C[C@H]2Oc3ccc(NS(C)(=O)=O)cc3CC(=O)N([C@@H](C)CO)C[C@H]2C)cc1 | 16
C[C@@H]1CCCCO[C@@H](CN(C)C(=O)Nc2ccc(C(F)(F)F)cc2)[C@@H](C)CN([C@H](C)CO)C(=O)c2cc(NC(=O)Cc3ccccc3)ccc2O1 | 45
CN(C)CCNC(=O)c1cc(-c2cccnc2)nc2c(Cl)cccc12 | 19
C[C@H]1CN([C@@H](C)CO)C(=O)Cc2cc(NC(=O)CCC(F)(F)F)ccc2O[C@@H]1CN(C)Cc1ccc(-c2ccccc2)cc1 | 97*
C[C@@H]1CN([C@@H](C)CO)C(=O)c2cc(NC(=O)C3CC3)ccc2O[C@@H]1CN(C)Cc1ccccc1 | 22
C[C@@H]1CN([C@H](C)CO)C(=O)c2cccc(NS(=O)(=O)c3ccc(F)cc3)c2O[C@H]1CN(C)CC1CC1 | 2
C[C@@H]1CN([C@H](C)CO)C(=O)c2cccc(NC(=O)c3cnccn3)c2O[C@H]1CN(C)S(=O)(=O)c1ccc(Cl)cc1 | -1
Cc1nn(CC(O)Cn2cnc3c2c(=O)n(C)c(=O)n3C)c(C)c1Br (centres undefined) | -7
C[C@H](CO)N1C[C@H](C)[C@@H](CN(C)Cc2ccc(Oc3ccccc3)cc2)Oc2c(NC(=O)C3CC3)cccc2C1=O | ?
C[C@@H]1CN([C@@H](C)CO)C(=O)Cc2cc(NC(=O)C3CCCCC3)ccc2O[C@@H]1CN(C)C | 2
c1csc(-c2nn3c(Cn4cnc5ccccc54)nnc3s2)c1 | 4
CN(CC(=O)Nc1ccccc1F)S(=O)(=O)c1ccc2ccccc2c1 | 36
COc1ccc(NC(=O)N(C)C[C@@H]2Oc3ccc(NC(=O)Nc4ccccc4)cc3CC(=O)N([C@H](C)CO)C[C@H]2C)cc1 | 2
C[C@H](CO)N1C[C@H](C)[C@@H](CN(C)Cc2ccncc2)Oc2c(NC(=O)c3ccc(-c4nccs4)cc3)cccc2C1=O | 34
CCOc1ccc(NC(=O)Cn2cnc3sc(C(N)=O)c(C)c3c2=O)cc1 | -7
CC(=O)N1CCc2cc(NC(=S)NC3CCCCCC3)ccc21 | 33
COc1ccc(C(=O)Nc2cccc(C(=O)NCc3ccco3)c2)cc1 | 8
CC1=C(C(=O)Nc2ccccc2Cl)C(c2cc(Br)ccc2OCC(N)=O)NC(=S)N1 (centres undefined) | 53
COc1ccc(S(=O)(=O)N(C)CC(=O)Nc2ccc(Br)cc2F)cc1C | 1
COc1ccc(S(=O)(=O)Nc2cccc3c2O[C@@H](CN(C)Cc2ccc(Oc4ccccc4)cc2)[C@@H](C)CN([C@H](C)CO)C3=O)cc1 | 30
CC(C)NC(=O)Nc1ccc2c(c1)C(=O)N([C@@H](C)CO)C[C@@H](C)[C@@H](CN(C)CC1CCCCC1)O2 | 13
C[C@H]1CN([C@@H](C)CO)C(=O)c2cc(NC(=O)c3ccncc3)ccc2O[C@@H]1CN(C)C(=O)Nc1cccc2ccccc12 | -10
C[C@H]1CN([C@@H](C)CO)C(=O)c2cccc(NC(=O)c3cnccn3)c2O[C@@H]1CN(C)Cc1ccc(C(=O)Nc2ccccc2N)cc1 | 108*
C[C@@H]1CN([C@@H](C)CO)C(=O)c2cc(NC(=O)C3CC3)ccc2O[C@H]1CN(C)Cc1ccc2c(c1)OCO2 | 9
COc1ccc(CN(C)C[C@H]2Oc3ccc(NC(=O)C4CCCCC4)cc3C(=O)N([C@H](C)CO)C[C@H]2C)cc1 | 34
c1ccc(-c2cc3c(NCC4CCCO4)ncnc3s2)cc1 (centres undefined) | 41
C[C@@H]1CCCCO[C@@H](CN(C)Cc2ccc(C(F)(F)F)cc2)[C@@H](C)CN([C@H](C)CO)C(=O)c2cc(NC(=O)c3ccncc3)ccc2O1 | 20
CCOC(=O)c1c(NC(=O)c2nc3ncccn3n2)sc2c1CCC(C)C2 (centres undefined) | -3
C[C@@H]1CN([C@H](C)CO)C(=O)Cc2cc(NC(=O)Nc3cccc4ccccc34)ccc2O[C@@H]1CN(C)CC1CCCCC1 | 87*
COc1ccc(C(=O)N(CCCCN2C(=O)c3ccccc3C2=O)c2ccc(C)cc2)cc1 | 27
CC1CCC2(C(=O)O)CCC3(C)C(=CCC4C5(C)C[C@@H](O)[C@@H](O)C(C)(CO)C5CCC43C)C2C1(C)O (some centres undefined) | 16
C[C@H]1CN([C@@H](C)CO)C(=O)Cc2cc(NC(=O)C3CC3)ccc2O[C@@H]1CN(C)CC1CCCCC1 | 20
O=C(CSc1ncnc2sc(-c3ccccc3)cc12)Nc1ccccc1C(F)(F)F | 50
C[C@@H]1CN([C@H](C)CO)C(=O)Cc2cc(NC(=O)C3CC3)ccc2O[C@@H]1CN(C)Cc1ccc(Cl)c(Cl)c1 | 26
Cc1noc(C)c1S(=O)(=O)N(C)C[C@H]1Oc2ccc(N(C)C)cc2CC(=O)N([C@H](C)CO)C[C@H]1C | 32
O=c1[nH]c(-c2ccccc2)nnc1/C=C(\O)c1cccs1 | 19
Cc1c(Br)c([N+](=O)[O-])nn1C(C)C(=O)Nc1ccccc1C(F)(F)F (centres undefined) | -8
CCOc1ccc2nc(SCC(=O)Nc3cccc(C)c3C)sc2c1 | -1

An excerpt of the results above, for reference:
SMILES | NOMO-1 viab
C[C@@H]1CCCCO[C@@H](CN(C)Cc2ccc(C(F)(F)F)cc2)[C@@H](C)CN([C@H](C)CO)C(=O)c2cc(NC(=O)c3ccncc3)ccc2O1 | 20
CCOC(=O)c1c(NC(=O)c2nc3ncccn3n2)sc2c1CCC(C)C2 (centres undefined) | -3
C[C@@H]1CN([C@H](C)CO)C(=O)Cc2cc(NC(=O)Nc3cccc4ccccc34)ccc2O[C@@H]1CN(C)CC1CCCCC1 | 87*
COc1ccc(C(=O)N(CCCCN2C(=O)c3ccccc3C2=O)c2ccc(C)cc2)cc1 | 27
CC1CCC2(C(=O)O)CCC3(C)C(=CCC4C5(C)C[C@@H](O)[C@@H](O)C(C)(CO)C5CCC43C)C2C1(C)O (some centres undefined) | 16
C[C@H]1CN([C@@H](C)CO)C(=O)Cc2cc(NC(=O)C3CC3)ccc2O[C@@H]1CN(C)CC1CCCCC1 | 20
O=C(CSc1ncnc2sc(-c3ccccc3)cc12)Nc1ccccc1C(F)(F)F | 50
C[C@@H]1CN([C@H](C)CO)C(=O)Cc2cc(NC(=O)C3CC3)ccc2O[C@@H]1CN(C)Cc1ccc(Cl)c(Cl)c1 | 26
Cc1noc(C)c1S(=O)(=O)N(C)C[C@H]1Oc2ccc(N(C)C)cc2CC(=O)N([C@H](C)CO)C[C@H]1C | 32
O=c1[nH]c(-c2ccccc2)nnc1/C=C(\O)c1cccs1 | 19
Cc1c(Br)c([N+](=O)[O-])nn1C(C)C(=O)Nc1ccccc1C(F)(F)F (centres undefined) | -8
CCOc1ccc2nc(SCC(=O)Nc3cccc(C)c3C)sc2c1 | -1

(further entries)
SMILES | NOMO-1 viab
C[C@H](CO)N1C[C@H](C)[C@H](CN(C)Cc2ccc(Oc3ccccc3)cc2)Oc2ccc(NC(=O)C3CC3)cc2CC1=O | 37
N#Cc1cc2c(OCC(O)CN3CCN(C(c4ccccc4)c4ccccc4)CC3)cccc2[nH]1 (centres undefined) | 116*
C=C[C@@]1(C)CCC2C(=CCC3[C@]2(C)CCC[C@@]3(C)C(=O)O)C1 (some centres undefined) | 11
C[C@@H]1CN([C@@H](C)CO)C(=O)c2cc(NS(C)(=O)=O)ccc2O[C@@H]1CN(C)C(=O)Nc1cccc2ccccc12 | 11
CC(NS(=O)(=O)c1ccc(Br)cc1)C(=O)Nc1cccc([N+](=O)[O-])c1 (centres undefined) | -7
CC(C)NC(=O)N(C)C[C@@H]1Oc2c(NC(=O)Nc3ccc(F)cc3)cccc2C(=O)N([C@@H](C)CO)C[C@H]1C | 5
C[C@H]1CN([C@@H](C)CO)C(=O)c2cc(NC(=O)Cc3ccccc3)ccc2O[C@@H]1CN(C)Cc1ccccc1 | -6
C[C@H]1CN([C@@H](C)CO)C(=O)c2cccc(NS(=O)(=O)c3cccs3)c2O[C@H]1CN(C)C(=O)NC1CCCCC1 | 20
CNC[C@@H]1Oc2c(NS(=O)(=O)c3cn(C)cn3)cccc2C(=O)N([C@@H](C)CO)C[C@H]1C | 6
Nc1ncnc2c1ncn2C1CCCO1 (centres undefined) | 20
C[C@H]1CN([C@@H](C)CO)C(=O)Cc2cc(NS(=O)(=O)c3ccc(F)cc3)ccc2O[C@H]1CN(C)Cc1ccc(Oc2ccccc2)cc1 | 122*
COc1ccc(S(=O)(=O)Nc2ccc3c(c2)C(=O)N([C@@H](C)CO)C[C@H](C)[C@@H](CN(C)S(=O)(=O)c2ccccc2)O3)cc1 | 6
C[C@H]1CN([C@@H](C)CO)C(=O)c2cccc(NS(=O)(=O)c3cccs3)c2O[C@@H]1CN(C)C(=O)Nc1ccc2c(c1)OCO2 | -3
COc1ccc(S(=O)(=O)Nc2ccc3c(c2)CC(=O)N([C@H](C)CO)C[C@H](C)[C@H](CN(C)C(=O)Nc2ccc(F)cc2)O3)cc1 | -16
C[C@H]1CN([C@@H](C)CO)C(=O)Cc2cc(NC(=O)CCN3CCOCC3)ccc2O[C@@H]1CN(C)S(=O)(=O)c1ccccc1 | -33
COc1ccc([N+](=O)[O-])cc1NC(=O)CSc1nncn1C | 7
COc1ccc(NC(=O)CSc2nc3ccccc3n2-c2ccccc2)c([N+](=O)[O-])c1 | -17
Cc1cc(C)c(C#N)c(SCc2cc(=O)[nH][nH]2)n1 | 27
Cc1noc(C)c1NC(=O)N(C)C[C@H]1Oc2ccc(NC(=O)Cn3cnnn3)cc2C(=O)N([C@H](C)CO)C[C@@H]1C | 5
O=C1C(Nc2ccccc2)=CC(=O)c2ncccc21 | 142*
C[C@@H]1CN([C@@H](C)CO)C(=O)c2cc(NC(=O)CCCN(C)C)ccc2O[C@@H]1CN(C)C(=O)Nc1ccc2c(c1)OCO2 | 9
C[C@H](CO)N1C[C@H](C)[C@@H](CN(C)Cc2ccc(-c3ccccc3)cc2)Oc2ccc(NS(=O)(=O)c3ccc(Cl)cc3)cc2C1=O | 62
O=C(Nc1ccc(S(=O)(=O)Nc2ncccn2)cc1)c1ccc(-c2ccccc2)cc1 | 5
CCc1ccc(NC(=O)CSc2nc(-c3ccc(OC)cc3)cc(=O)[nH]2)cc1 | -8
C[C@@H]1CN([C@H](C)CO)C(=O)c2cccc(NC(=O)c3ccc(-c4nccs4)cc3)c2O[C@H]1CN(C)C(=O)Nc1ccccc1 | 3
COc1ccc(NC(=O)N(C)C[C@H]2Oc3c(NS(=O)(=O)c4cccs4)cccc3C(=O)N([C@@H](C)CO)C[C@H]2C)cc1 | 28
Cn1nc(CC(=O)Nc2nc(-c3ccccc3)cs2)c2ccccc2c1=O | 52
O=C(OCc1cccc(C(=O)c2ccccc2)c1)c1ccc(NC(=O)c2ccco2)cc1 | 27
C[C@@H]1CCCCO[C@@H](CN(C)S(=O)(=O)c2ccc(Cl)cc2)[C@@H](C)CN([C@H](C)CO)C(=O)c2cc(NC(=O)NC3CCCCC3)ccc2O1 | 42
C[C@@H]1CN([C@@H](C)CO)C(=O)c2cc(NS(=O)(=O)c3cn(C)cn3)ccc2O[C@@H]1CN(C)C(=O)Nc1ccc(C(F)(F)F)cc1 | 4
Cc1ccc(S(=O)(=O)Nc2ccc3c(c2)C(=O)N([C@H](C)CO)C[C@H](C)[C@H](CN(C)C(=O)Nc2ccc(F)cc2)O3)cc1 | 0
O=C(CC1c2ccccc2Oc2ccccc21)Nc1ccc(Cc2ccncc2)cc1 | 135*
CC(C)NC(=O)Nc1ccc2c(c1)C(=O)N([C@H](C)CO)C[C@H](C)[C@H](CN(C)S(=O)(=O)c1cccs1)O2 | -17
CC(=O)Nc1ccc(N=Cc2cccc3ccccc23)cc1 | 32
Cc1ccc(S(=O)(=O)Nc2ccc3c(c2)CC(=O)N([C@@H](C)CO)C[C@H](C)[C@@H](CN(C)Cc2ccc(C(F)(F)F)cc2)O3)cc1 | 98*

Screening results (PubChem)
